Compound activity from PubChem.
CHT allo act: CHT positive allosteric modulators, primary screen, cell-based, membrane potential dye, choline EC20 | High affinity choline transporter 1 (Homo sapiens), Q9GZV3 | CHT-expressing cells; active compounds read high; LV-AA mutant CHT in HEK293 cells | B-score at 10 µM | hit rate 0.49% among 310,000;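 active = initial fluorescence not abnormally high and integrated response B-score, plate-corrected, over 3 SD above library mean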
Target sequence (Q9GZV3 whole entry, looked up): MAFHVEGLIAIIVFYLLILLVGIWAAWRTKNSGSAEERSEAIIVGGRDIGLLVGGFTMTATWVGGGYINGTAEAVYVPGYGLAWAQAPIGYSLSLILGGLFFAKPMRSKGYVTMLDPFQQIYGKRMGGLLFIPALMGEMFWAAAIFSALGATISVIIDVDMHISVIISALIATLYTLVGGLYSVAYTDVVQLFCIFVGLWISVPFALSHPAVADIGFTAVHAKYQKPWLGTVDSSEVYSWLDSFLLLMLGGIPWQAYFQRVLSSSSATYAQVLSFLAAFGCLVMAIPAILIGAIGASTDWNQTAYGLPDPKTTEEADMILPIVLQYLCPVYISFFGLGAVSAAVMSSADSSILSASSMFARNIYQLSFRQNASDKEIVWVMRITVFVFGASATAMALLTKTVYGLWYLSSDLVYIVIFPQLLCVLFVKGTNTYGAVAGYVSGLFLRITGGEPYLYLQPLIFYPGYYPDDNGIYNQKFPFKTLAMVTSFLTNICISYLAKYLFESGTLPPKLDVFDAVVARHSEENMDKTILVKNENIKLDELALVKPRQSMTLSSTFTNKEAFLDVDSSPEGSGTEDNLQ
Calls only; i = inactive. Only part of the results is shown; most or all hits stand in other tables.

SMILES | CHT allo act
O=C(c1ccc(S(=O)(=O)NCC2CCCO2)cc1)N1CCN(c2ccccc2)CC1 (stereo unspecified) | i
COc1ccccc1C(=O)Nc1ccc(NC(=O)c2ccco2)cn1 | i
O=C(CCC(=O)Nc1ccccc1Cl)NNC(=S)Nc1ccccc1C(F)(F)F | i
CC(C)COC(=O)n1c(SCC(=O)N(C)C)nc2ccccc21 | i
C=CCOC(=O)C1=C(C)NC(=O)NC1c1ccc(N(C)C)cc1 (stereo unspecified) | i
COCC(=O)N(Cc1ccc(OC)cc1)Cc1nc2ccccc2c(=O)[nH]1 | i
CCc1c(C)nc(SCC(=O)N2CC(C)OC(C)C2)[nH]c1=O (stereo unspecified) | i
COC(=O)c1ccc(-c2noc(CN3CCCCC3c3nccn3C)n2)cc1 (stereo unspecified) | i
Cc1onc(-c2ccccc2)c1C(=O)NC(=S)NNC(=O)c1cccnc1 | i
Cc1cccc(CNS(=O)(=O)c2ccc(-c3ccc(=O)[nH]n3)s2)c1 | i
COc1ccc(C(=O)NCCONC(=O)c2ccc(OC)cc2)cc1 | i
COc1ccccc1OCCNC(=O)CSC(=S)N1CCCC1 | i
Cn1cnnc1SCC(=O)c1ccc2c(c1)OCO2 | i
CC(=O)Nc1cccc(NC(=O)CSc2nc(C)c(C)c(C)c2C#N)c1 | i
O=c1c2ccccc2c(C=Nc2ccccc2O)c(O)n1-c1nccs1 | i
CSCCC(NC(=O)/C(=C/c1ccco1)NC(=O)c1ccc(Br)o1)C(=O)O (stereo unspecified) | i
N#C/C(=C\c1c(Cl)cccc1Cl)c1nn(-c2ccccc2)c(-n2cccc2)c1C#N | i
Cc1cc(N/C(=N/S(=O)(=O)c2cc(F)ccc2F)c2ccccc2)n(-c2ccccc2)n1 | i
Cc1ccccc1/C=C/c1cc[n+](C)cc1 | i
COc1cc(NC(=O)c2cccnc2Sc2ccc(Cl)cc2)cc(OC)c1OC | i
CC(=O)N1CCc2cc3nc(C)cc(C)c3cc21 | i
CCOC(=O)Cn1c(CN2CCOCC2)nc2c1c(=O)n(C)c(=O)n2C | i
CCOC(=O)c1cc2c(n(-c3ccccc3)c1=O)CC(C)(C)CC2=O | i
COc1ccc(N2CC(=O)N(c3ccccc3)C2=S)cc1 | i
O=C(Nc1ccc2c(c1)OCCO2)c1ccncc1 | i

Remaining list, next part
SMILES | CHT allo act
COc1ccccc1-c1ccc(SCC(=O)NCc2ccc3c(c2)OCO3)nn1 | i
O=C1NC(=O)/C(=C/C(=O)N2CCOCC2)S1 | i
CC(=O)c1ccc(NC(=O)CC(NCCC2=CCCCC2)C(=O)O)cc1 (stereo unspecified) | i
CC(C)c1cccc(C(C)C)c1NC(=O)COC(=O)[C@H](C)NC(N)=O | i
CCc1ccccc1C1C(=O)c2ccccc2C1=O | i
CC(=O)Cc1nsc(NC(=O)c2ccc(COc3ccccc3C)o2)n1 | i
CCN(CC)S(=O)(=O)c1ccc(C)c(NC(=O)CSc2ncc(C(F)(F)F)cc2Cl)c1 | i
Cc1ccc(C2C=C(c3ccc4c(c3)OCO4)Nc3ncnn32)cc1 (stereo unspecified) | i
Cc1ccc(S(=O)(=O)NCCC(=O)N2CCN(S(=O)(=O)c3ccccc3)CC2)cc1C | i
CCOC(=O)c1c(C#N)c(SCC(=O)Nc2ccc(OC)cc2)nc2c1CN(CC)CC2 | i
C[C@H](NC(=O)[C@@H]1Cc2ccccc2CN1C(=O)OC(C)(C)C)C(=O)NC1CCCC1 | i
Cc1[nH]c2c(Cl)cccc2c(=O)c1CN1CCCC1 | i
CCOC(=O)C1CCN(C(=O)CN(c2cc(OC)ccc2OC)S(=O)(=O)c2ccccc2)CC1 | i
CC(Oc1ccccc1)C(=O)N1CCN(c2ccc(N3CCOCC3)nn2)CC1 (stereo unspecified) | i
CC(=O)Nc1ccc(NC(=O)CSc2ccc(C(F)(F)F)cc2[N+](=O)[O-])cc1 | i
COc1cc(/C=N/NC(=O)c2cc(-c3ccccc3)sc2N)cc(OC)c1OC | i
CCn1c(SCC(=O)c2cc(OC)ccc2OC)nnc1C(C)C | i
CSc1nsc(SC)c1NC(=O)OC1CCCCC1 | i
CC(c1ccccc1F)n1cc(C(=O)NCCCc2nc3ccccc3[nH]2)nn1 (stereo unspecified) | i
Cc1ccc(-n2ncc3c(N4CCCC(C)C4)ncnc32)c(C)c1 (stereo unspecified) | i
COc1ccc(OC)c(NC(=O)COc2ccc(Br)cc2)c1 | i
CCC(C)NC(=O)c1ccc(NC(=O)C2CCCO2)cc1 (stereo unspecified) | i
CC1=C(C(=O)OCc2ccccc2)C(c2cccc(Cl)c2Cl)NC(=O)N1CCCCCC(=O)O (stereo unspecified) | i
COC(=O)C(CC(C)C)NC(=O)CSc1nc(-c2ccccc2)c(C#N)c(=O)[nH]1 (stereo unspecified) | i
COc1ccccc1C(=O)N1CCN(CCc2ccccc2)CC1 | i

Reformatted as a markdown table: 17 of the compounds above.
| molecule | CHT allo act |
| --- | --- |
| Cc1ccc(S(=O)(=O)NCCC(=O)N2CCN(S(=O)(=O)c3ccccc3)CC2)cc1C | i |
| CCOC(=O)c1c(C#N)c(SCC(=O)Nc2ccc(OC)cc2)nc2c1CN(CC)CC2 | i |
| C[C@H](NC(=O)[C@@H]1Cc2ccccc2CN1C(=O)OC(C)(C)C)C(=O)NC1CCCC1 | i |
| Cc1[nH]c2c(Cl)cccc2c(=O)c1CN1CCCC1 | i |
| CCOC(=O)C1CCN(C(=O)CN(c2cc(OC)ccc2OC)S(=O)(=O)c2ccccc2)CC1 | i |
| CC(Oc1ccccc1)C(=O)N1CCN(c2ccc(N3CCOCC3)nn2)CC1 (stereo unspecified) | i |
| CC(=O)Nc1ccc(NC(=O)CSc2ccc(C(F)(F)F)cc2[N+](=O)[O-])cc1 | i |
| COc1cc(/C=N/NC(=O)c2cc(-c3ccccc3)sc2N)cc(OC)c1OC | i |
| CCn1c(SCC(=O)c2cc(OC)ccc2OC)nnc1C(C)C | i |
| CSc1nsc(SC)c1NC(=O)OC1CCCCC1 | i |
| CC(c1ccccc1F)n1cc(C(=O)NCCCc2nc3ccccc3[nH]2)nn1 (stereo unspecified) | i |
| Cc1ccc(-n2ncc3c(N4CCCC(C)C4)ncnc32)c(C)c1 (stereo unspecified) | i |
| COc1ccc(OC)c(NC(=O)COc2ccc(Br)cc2)c1 | i |
| CCC(C)NC(=O)c1ccc(NC(=O)C2CCCO2)cc1 (stereo unspecified) | i |
| CC1=C(C(=O)OCc2ccccc2)C(c2cccc(Cl)c2Cl)NC(=O)N1CCCCCC(=O)O (stereo unspecified) | i |
| COC(=O)C(CC(C)C)NC(=O)CSc1nc(-c2ccccc2)c(C#N)c(=O)[nH]1 (stereo unspecified) | i |
| COc1ccccc1C(=O)N1CCN(CCc2ccccc2)CC1 | i |

Following part:
SMILES | CHT allo act
c1ccc(-c2ccccc2-c2nc(-c3ccncc3)no2)cc1 | i
Cc1ccc(NC(=O)CCNS(=O)(=O)c2cccc3nonc23)cc1Cl | i
COc1ccc(CNC2CC(C)N(C)CC2C)cc1OC (stereo unspecified) | i
Fc1ccc(SCCc2ccncc2)cc1 | i
O=C(COc1cccc(Oc2ccccc2)c1)Nc1ncccn1 | i
O=S(=O)(c1ccccc1)N1CCN(C/C=C/c2ccccc2)CC1 | i
NC(=O)c1c(-c2ccccc2)oc2ccc(O)cc12 | i
COc1ccc(CCN(C)C2CCCN(C(=O)Cn3cccn3)C2)cc1OC (stereo unspecified) | i
CCOc1cccc(/C=C/c2cc(C(=O)O)c3ccccc3n2)c1OC | i
COc1ccc(N2C(=O)C3C4C=CC(c5ccccc5)(C3C2=O)C2C(=O)N(c3ccc(OC)cc3)C(=O)C42)cc1 (stereo unspecified) | i
O=C1NN(c2ccccc2)C(=O)/C1=C/c1ccc(-c2ccc(C(=O)O)cc2)o1 | i
CCc1noc(N)c1C(=O)Nc1ccc(Cl)cc1 | i
COc1ccc(N2CCN(c3ccc(Cl)nn3)CC2)cc1 | i
C=CCNC(=O)/C(C#N)=C/c1c(N2CC(C)OC(C)C2)nc2ccccn2c1=O (stereo unspecified) | i
Cc1oc2c(cc(NS(=O)(=O)c3cccs3)c3ccccc32)c1C(=O)OC(C)C | i
Cc1cccc(N2CCN(CC3CCCCC3)CC2)c1C | i
CC(=O)/C(=N\Nc1cccc(Cl)c1)Sc1cccc2cccnc12 | i
COC(=O)CCS(=O)(=O)c1ccc(Cl)c(Cl)c1 | i
O=C(NCCCn1ccnc1)c1cn(-c2ccccc2)nc1-c1ccccc1 | i
COc1ccc(C(=O)Nc2ccc(C(=O)N3CCCCC3C)cc2)c(OC)c1OC (stereo unspecified) | i
CC(C)CNC(=O)COC(=O)c1c2c(nc3ccccc13)CCC2 | i
COc1cccc(C(C(=O)NC2CCCCC2)N(C(=O)Cc2cccs2)c2ccc(-n3cnnn3)c(OC)c2)c1 (stereo unspecified) | i
CCN(CC)S(=O)(=O)c1cccc(C(=O)Nc2ccccc2)c1 | i
COc1ccc(C(=O)C2CCCCC2=O)cc1 (stereo unspecified) | i
O=C1CN(C(=O)c2ccc(Br)o2)C(c2ccccc2)c2cc(Br)ccc2N1 (stereo unspecified) | i

(further entries)
SMILES | CHT allo act
COc1ccccc1OCCNC(=O)Cc1ccc(Cl)c(Cl)c1 | i
Cc1ccc(S(=O)(=O)NN=C2C3CC4CC(C3)CC2C4)cc1[N+](=O)[O-] | i
Cc1cnc(C(=O)OCC(=O)Nc2ccc(Cl)cc2Cl)cn1 | i
CCCCCn1c(CNC(C)=O)nc2ccccc21 | i
CC1CCN(S(=O)(=O)c2ccc3c(c2)CCN3C(=O)C2CCC2)CC1 | i
Cc1ccc(S(=O)(=O)N2CCC(NC(=O)c3cccnc3)CC2)cc1Cl | i
COc1ccc(OCC(=O)Nc2ccc3c(c2)nc(CCNC(C)=O)n3C)cc1 | i
Cc1ccc(-c2nnc(CSc3nnc(COc4ccccc4)n3-c3ccccc3)o2)cc1 | i
Nc1ccc2nc3c(c(Cl)c2c1)CCCC3 | i
O=C(NCCN1CCCCCC1)C1CC(=O)N(CCc2ccccc2)C1 (stereo unspecified) | i
Cc1cc(C)c2c(N)c(C(=O)Nc3ccccc3Br)sc2n1 | i
CCOC(=O)C1(C)C=C(Nc2ccccc2)C(=O)N1c1ccccc1 (stereo unspecified) | i
CC(=O)Nc1nnc(SCc2cccc(F)c2)s1 | i
CCCCOc1ccccc1C(=O)NCCCC(=O)O | i
CN(C)C(CNC(=O)CCNC(=O)c1ccc(Br)cc1)c1ccco1 (stereo unspecified) | i
O=C(Nc1cccc(C(F)(F)F)c1)c1cc(-c2ccco2)on1 | i
COCCN1CCN(C(=O)C2CCC(=O)N(CCc3ccc(Cl)cc3)C2)CC1 (stereo unspecified) | i
CC1(C)Oc2ccc(C(=O)N3CCOCC3)cc2N(CC(=O)N2CCOCC2)C1=O | i
N#Cc1c(C(F)(F)F)cc(-c2cccs2)nc1SCc1ccc(Cl)nc1 | i
Cc1[nH]n(C(N)=S)c(=O)c1C(c1ccccc1)C(C#N)C#N (stereo unspecified) | i
COc1ccc(NC(=O)c2cc([N+](=O)[O-])ccc2NC(=O)CNC2CCCCC2C)c(OC)c1 (stereo unspecified) | i
Cc1nnc2sc(-c3ccncc3)nn12 | i
O=C(CSc1nncc(=O)[nH]1)Nc1cccc([N+](=O)[O-])c1 | i
NC(=O)CSC1=Nc2ccccc2C2=NC(c3ccccc3)C(=O)N12 (stereo unspecified) | i
N#CCCN(C(=O)COC(=O)c1cc(S(=O)(=O)N2CCOCC2)ccc1Cl)c1ccc(F)cc1 | i

Next structures
SMILES | CHT allo act
CNC(=O)/C(C#N)=C/c1c(N(Cc2ccccc2)Cc2ccccc2)nc2ccccn2c1=O | i
CCn1c(COc2cccc(C)c2)nnc1SCC(=O)Nc1cccc(C(=O)O)c1 | i
CC(=O)Nc1ccc2c(c1)nc(CCN1CCC(C)CC1)n2C | i
CN(C)S(=O)(=O)c1ccc(NC(=O)c2c(F)cccc2Cl)cc1 | i
COc1cc(CC(=O)OCC(=O)N2CC(C)CC(C)C2)cc(OC)c1OC (stereo unspecified) | i
CCOC(=O)c1ccc(NS(=O)(=O)c2cc3c(cc2C)NC(=O)CO3)cc1 | i
O=C(COc1ccc(Cl)cc1)Nc1nc(-c2ccc(S(=O)(=O)N3CCOCC3)cc2)cs1 | i
O=S(=O)(CCc1nnc(-c2ccccc2)o1)c1ccc2ccccc2c1 | i
Nc1ccccc1C(=O)NCc1ccccc1 | i
CCO[C@H]1OC(C(=O)N2CCN(Cc3ccc4c(c3)OCO4)CC2)=C[C@@H](C2CC2)[C@@H]1CCCO | i
CCCCn1c(SCC(=O)NCc2ccco2)nc2ccccc2c1=O | i
C=CCO/N=C/C1C(=O)CC(C)(C)CC1=O | i
CCCc1[nH]nc2c1C(c1ccc(O)cc1OCC)C(C#N)=C(N)O2 (stereo unspecified) | i
Cc1cccc(/C(N)=N/OC(=O)N2c3ccccc3Sc3ccccc32)c1 | i
Cc1cc(NS(=O)(=O)c2ccc(NC(=O)CN3C(=O)c4ccccc4C3=O)cc2)nc(C)n1 | i
Oc1ccc(C[C@H]2CNCCN2CCc2cccc3ccccc23)cc1 | i
COc1ccc(-c2ccc(S(=O)(=O)N3CCCC3)cc2)cc1 | i
Cn1c(=O)cc(Nc2ccccc2)c2c(=O)n(-c3ccccc3)c(=O)n(-c3ccccc3)c21 | i
CSc1nc(NCC(C)C)nc(N2CCOCC2)n1 | i
Cc1ccc(C(=O)Nc2cccnc2)cc1S(=O)(=O)N1CCCCCC1 | i
COCc1cc(=O)[nH]c(/N=C(\N)Nc2cccc(Cl)c2)n1 | i
Cc1cccc(C(=O)OCC(=O)c2c(N)n(CC(C)C)c(=O)n(C)c2=O)c1[N+](=O)[O-] | i
COCc1ccc(C(=O)N2CCCC(C(=O)c3ccc(Cl)cc3C)C2)o1 (stereo unspecified) | i
COc1ccc(Oc2coc3cc(OC(=O)c4cncc(Br)c4)ccc3c2=O)cc1 | i
COc1cccc(CC2(CO)CCCN(CC3=Cc4cc(Cl)ccc4OC3)C2)c1 (stereo unspecified) | i
O=S1(=O)C[C@@H](O)[C@@H](Nc2ccc(Cl)cc2)C1 | i
CC1CC2(CCCCC2)Nc2ccc3ccccc3c21 (stereo unspecified) | i
COCCNC(=O)CSc1nc2ccccc2c(=O)n1CCC(=O)NCCc1ccc(OC)c(OC)c1 | i
CCCCCC(=O)Nc1ccc(-c2cn3cccnc3n2)cc1 | i
